Screening data as filed in PubChem BioAssay.
AF4-AF9 inh = inhibitors of human MLL-AF4/AF9 interaction; AlphaScreen, biotin-AF4 peptide binding to FLAG-AF9; hit rate 0.47% among 350,000; P42568; inhibition, % at 10 µM;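 active means every replicate reaching a set inhibition limit, whatever the replicate mean, cut at about 25% in these data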;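 further: 0% = plate neutral control median and 100% = total signal loss; the record names both 10 and 1 µM as test concentration; the first replicate is given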
Target sequence (P42568 whole entry, looked up): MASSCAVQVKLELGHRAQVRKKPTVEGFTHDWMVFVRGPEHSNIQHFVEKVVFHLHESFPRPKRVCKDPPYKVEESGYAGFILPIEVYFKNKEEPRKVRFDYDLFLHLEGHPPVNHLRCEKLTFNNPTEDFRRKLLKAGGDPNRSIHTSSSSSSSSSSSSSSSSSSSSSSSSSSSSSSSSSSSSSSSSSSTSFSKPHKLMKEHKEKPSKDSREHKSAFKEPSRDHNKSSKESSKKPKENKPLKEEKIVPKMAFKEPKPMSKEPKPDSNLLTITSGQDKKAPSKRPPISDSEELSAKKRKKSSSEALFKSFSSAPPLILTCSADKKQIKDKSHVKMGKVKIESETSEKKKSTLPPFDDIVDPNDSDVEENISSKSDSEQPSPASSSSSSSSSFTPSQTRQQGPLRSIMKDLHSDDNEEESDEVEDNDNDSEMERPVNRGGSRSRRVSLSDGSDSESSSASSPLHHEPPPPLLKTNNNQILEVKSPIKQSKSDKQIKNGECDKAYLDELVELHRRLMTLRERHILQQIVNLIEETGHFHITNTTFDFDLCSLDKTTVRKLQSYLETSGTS
Active calls of the source: *; & = joins results of further samples.

For Cc1ccc(S(=O)(=O)N[C@@H]2CC[C@H](CCNC(=O)Cc3ccccn3)O[C@@H]2CO)cc1 the results were AF4-AF9 inh -1.8.
`COc1ccc(S(=O)(=O)Nc2ccc3c(c2)[C@H]2C[C@@H](CC(=O)N(C)C)O[C@H](CO)[C@H]2O3)cc1` gave AF4-AF9 inh -3.2.
For CC(C)CC#Cc1cnc2c(c1)C(=O)N([C@H](C)CO)C[C@@H](C)[C@H](CN(C)C(=O)c1ccc(F)cc1)O2 the results were AF4-AF9 inh 3.1.
`C[C@@H]1CN([C@H](C)CO)C(=O)c2cc(NC(=O)NC3CCCCC3)ccc2O[C@@H](C)CCCCO[C@@H]1CN(C)S(=O)(=O)c1ccc(Cl)cc1` gave AF4-AF9 inh -1.2.
Screening O=C(C[C@@H]1C[C@@H]2c3cc(NC(=O)C4CCOCC4)ccc3O[C@@H]2[C@H](CO)O1)NCc1ccc(Oc2ccccc2)cc1 returned AF4-AF9 inh 0.6.
CC(C)NC(=O)N(C)C[C@@H]1OCCCC[C@H](C)Oc2ccc(NS(=O)(=O)c3ccc(Cl)cc3)cc2C(=O)N([C@H](C)CO)C[C@H]1C was read as AF4-AF9 inh 2.4.
C[C@H](CO)N1C[C@H](C)[C@H](CN(C)Cc2ccc3c(c2)OCO3)Oc2ccc(NC(=O)Nc3cccc4ccccc34)cc2C1=O was read as AF4-AF9 inh 5.2.
Screening O=C(C[C@@H]1CC[C@H](NC(=O)c2cccc(F)c2)[C@H](CO)O1)NCc1ccc(Oc2ccccc2)cc1 returned AF4-AF9 inh 1.2.
For C[C@@H]1CN([C@H](C)CO)C(=O)c2cccc(NC(=O)c3ccncc3)c2O[C@H]1CN(C)CC1CCCCC1 the results were AF4-AF9 inh 1.2.
`O=S(=O)(c1cccc(F)c1)N1[C@@H]2CNC[C@H]1C2c1ccc(/C=C/c2ccccc2)cc1` (some centres undefined) gave AF4-AF9 inh 2.0&8.2.
`COc1ccc(NC(=O)N2[C@@H]3CNC[C@H]2C3c2ccc(-c3ccc(F)cc3)cc2)cc1` (some centres undefined) gave AF4-AF9 inh 4.2.
`O=S1(=O)CC(N2CCSCC2)CN1Cc1cn(Cc2ccc(Cl)cc2)nn1` (centres undefined) gave AF4-AF9 inh -1.4.

10 compounds out of the list, arranged by molecular weight, high to low:
`C[C@@H]1CN([C@H](C)CO)C(=O)c2cc(NC(=O)NC3CCCCC3)ccc2O[C@@H](C)CCCCO[C@@H]1CN(C)S(=O)(=O)c1ccc(Cl)cc1` gave AF4-AF9 inh -1.2.
C[C@H](CO)N1C[C@H](C)[C@H](CN(C)Cc2ccc3c(c2)OCO3)Oc2ccc(NC(=O)Nc3cccc4ccccc34)cc2C1=O was read as AF4-AF9 inh 5.2.
Screening O=C(C[C@@H]1C[C@@H]2c3cc(NC(=O)C4CCOCC4)ccc3O[C@@H]2[C@H](CO)O1)NCc1ccc(Oc2ccccc2)cc1 returned AF4-AF9 inh 0.6.
For C[C@@H]1CN([C@H](C)CO)C(=O)c2cccc(NC(=O)c3ccncc3)c2O[C@H]1CN(C)CC1CCCCC1 the results were AF4-AF9 inh 1.2.
For CC(C)CC#Cc1cnc2c(c1)C(=O)N([C@H](C)CO)C[C@@H](C)[C@H](CN(C)C(=O)c1ccc(F)cc1)O2 the results were AF4-AF9 inh 3.1.
Screening O=C(C[C@@H]1CC[C@H](NC(=O)c2cccc(F)c2)[C@H](CO)O1)NCc1ccc(Oc2ccccc2)cc1 returned AF4-AF9 inh 1.2.
`COc1ccc(S(=O)(=O)Nc2ccc3c(c2)[C@H]2C[C@@H](CC(=O)N(C)C)O[C@H](CO)[C@H]2O3)cc1` gave AF4-AF9 inh -3.2.
For Cc1ccc(S(=O)(=O)N[C@@H]2CC[C@H](CCNC(=O)Cc3ccccn3)O[C@@H]2CO)cc1 the results were AF4-AF9 inh -1.8.
`O=S1(=O)CC(N2CCSCC2)CN1Cc1cn(Cc2ccc(Cl)cc2)nn1` (centres undefined) gave AF4-AF9 inh -1.4.
`COc1ccc(NC(=O)N2[C@@H]3CNC[C@H]2C3c2ccc(-c3ccc(F)cc3)cc2)cc1` (some centres undefined) gave AF4-AF9 inh 4.2.

Other results follow:
`Cc1noc(C)c1NC(=O)N(C)C[C@H]1Oc2ccc(NC(=O)Cc3ccccc3)cc2C(=O)N([C@@H](C)CO)C[C@H]1C` gave AF4-AF9 inh -0.1.
For CNC[C@H]1Oc2cc(-c3cccc(C(=O)N(C)C)c3)ccc2S(=O)(=O)N([C@@H](C)CO)C[C@H]1C the results were AF4-AF9 inh -1.4.
For COc1ccc(Sc2cccc(Cl)c2)c(C(=O)O)c1 the results were AF4-AF9 inh 1.5.
CCC(=O)Nc1ccc2c(c1)C(=O)N(C)C[C@H](OC)[C@H](C)CN(C(=O)COC)[C@H](C)CO2 was read as AF4-AF9 inh 0.0.
Screening CC(C)c1cccc(NC(=O)C[C@H]2CC[C@H]3[C@@H](COc4ccc(NC(=O)NCc5ccccc5)cc4C(=O)N3C)O2)c1 returned AF4-AF9 inh -0.3.
For COc1ccc(C(=O)N2CCCCC2c2cc(C(=O)Nc3cccc(C#N)c3)no2)cc1 (centres undefined) the results were AF4-AF9 inh -0.5.
COc1cccc(-c2ccc([C@@H]3[C@H](CO)N4CCCCN(CC5CCOCC5)C[C@@H]34)cc2)c1 was read as AF4-AF9 inh 12.6.
Screening O=C(C[C@@H]1CC[C@H]2[C@@H](COC[C@@H](O)CN2C(=O)Nc2cccc(Cl)c2)O1)NCC1CCCCC1 returned AF4-AF9 inh 1.3.
Screening C[C@@H]1CN([C@@H](C)CO)C(=O)c2cccc(NS(=O)(=O)c3ccc(F)cc3)c2O[C@@H]1CN(C)CC1CC1 returned AF4-AF9 inh -0.7.
`COc1ccc(S(=O)(=O)N(C)C[C@@H]2OCCCC[C@@H](C)Oc3ccc(NC(=O)CCCN(C)C)cc3C(=O)N([C@H](C)CO)C[C@H]2C)cc1` gave AF4-AF9 inh 5.4.
For C[C@H](CO)N1C[C@H](C)[C@H](CN(C)C(=O)Nc2cccc3ccccc23)Oc2ccc(NS(=O)(=O)c3ccccc3)cc2CC1=O the results were AF4-AF9 inh 0.4.
`CC(=O)NC[C@H]1[C@H](c2ccc(-c3ccccc3F)cc2)[C@H](CO)N1C(=O)C1CC1` gave AF4-AF9 inh 1.8.
For C/C=C/c1ccc2c(c1)O[C@@H](CN(C)C(=O)COC)[C@@H](C)CN([C@H](C)CO)S2(=O)=O the results were AF4-AF9 inh -6.3.
Screening CC(=O)N1[C@@H]2c3cccc(=O)n3C[C@H]1[C@H](CO)[C@H]2C(=O)NCC1CCCCC1 returned AF4-AF9 inh 0.2.
C/C=C/c1ccc([C@@H]2[C@@H](CO)N(C(=O)C3CC3)[C@H]2CN(C)C(=O)CN(C)C)cc1 was read as AF4-AF9 inh 0.7.
`Cc1noc(C)c1NC(=O)N(C)C[C@@H]1OCCCC[C@@H](C)Oc2ccc(NS(=O)(=O)c3ccc(Cl)cc3)cc2C(=O)N([C@H](C)CO)C[C@@H]1C` gave AF4-AF9 inh -0.6.
`COc1ccc(S(=O)(=O)N2C[C@H](O)COC[C@@H]3O[C@@H](CC(=O)N[C@H]4CCN(Cc5ccccc5)C4)CC[C@H]32)cc1` gave AF4-AF9 inh -0.1.
C[C@H](CO)N1C[C@H](C)[C@H](CN(C)Cc2cccc(F)c2)Oc2cc(C#Cc3ccccn3)ccc2S1(=O)=O was read as AF4-AF9 inh -2.4.
Screening COc1ccc(NC(=O)N(C)C[C@@H]2Oc3ccc(N(C)C)cc3C(=O)N([C@@H](C)CO)C[C@H]2C)cc1 returned AF4-AF9 inh 0.0.
Screening CCCNC(=O)N1[C@H](CO)[C@@H](c2ccccc2)C12CN(C(=O)C1CCCCC1)C2 returned AF4-AF9 inh -1.3.
For Cc1noc(C)c1NC(=O)N(C)C[C@H]1Oc2ncc(/C=C/c3ccccc3)cc2C(=O)N([C@H](C)CO)C[C@H]1C the results were AF4-AF9 inh -5.4.
`CCN1[C@@H]2c3ccc(C4=CCCCC4)c(=O)n3C[C@@H]2[C@@H](CO)[C@@H]1C(=O)NCc1cccc(OC)c1` gave AF4-AF9 inh 2.0.
CCNC(=O)C1CCCN(C(=O)c2ccc(C(F)(F)F)cc2)CC1 (centres undefined) was read as AF4-AF9 inh -0.3.
Screening COc1cccc(C(=O)N2C[C@H]3[C@@H](c4ccccc42)[C@@H](CO)N3C(=O)c2cccc(F)c2)c1 returned AF4-AF9 inh 0.4.
For C[C@H]1CN([C@@H](C)CO)S(=O)(=O)c2ccc(-c3ccc(F)cc3)cc2O[C@@H]1CN(C)C(=O)C1CCOCC1 the results were AF4-AF9 inh -1.3.
Screening CN1C(=O)c2cc(NS(C)(=O)=O)ccc2OC[C@@H]2O[C@H](CC(=O)NC3CCCCC3)CC[C@@H]21 returned AF4-AF9 inh -2.1.
Screening C[C@@H]1CN([C@@H](C)CO)C(=O)c2cc(/C=C/c3ccccc3)cnc2O[C@@H]1CN(C)C(=O)c1ccccc1 returned AF4-AF9 inh 2.6.
Screening C[C@@H]1CN([C@@H](C)CO)C(=O)c2cc(NS(=O)(=O)c3cn(C)cn3)ccc2O[C@H]1CN(C)Cc1ccc(Oc2ccccc2)cc1 returned AF4-AF9 inh 5.7.
For CC(C)NC(=O)Nc1ccc2c(c1)CC(=O)N([C@H](C)CO)C[C@H](C)[C@@H](CN(C)C(=O)Nc1cccc3ccccc13)O2 the results were AF4-AF9 inh -2.1.
Screening CSc1ncccc1C(=O)N1CCC(C)(C(=O)O)C1 (centres undefined) returned AF4-AF9 inh -4.1.
For CC(=O)N1[C@H](C(=O)NCC2CC2)[C@@H](CO)[C@@H]2Cn3c(ccc(C4=CCCC4)c3=O)[C@@H]21 the results were AF4-AF9 inh -0.6.
`O=C(C[C@H]1CC[C@H](NC(=O)Cc2cccnc2)[C@H](CO)O1)Nc1ccc(-c2ccccc2)cc1` gave AF4-AF9 inh 0.7.
For CNC[C@@H]1Oc2ncc(C#Cc3ccncc3)cc2C(=O)N([C@H](C)CO)C[C@@H]1C the results were AF4-AF9 inh -3.2.
`C[C@@H]1CN([C@H](C)CO)C(=O)Cc2cc(NC(=O)Nc3cccc4ccccc34)ccc2O[C@H]1CN(C)C(=O)NC1CCCCC1` gave AF4-AF9 inh 1.0.
`O=C(C[C@H]1C[C@H]2c3cc(NC(=O)NC4CCCCC4)ccc3O[C@H]2[C@@H](CO)O1)NCc1ccccn1` gave AF4-AF9 inh -1.3.
COc1ccccc1NC(=O)C(C)OC(=O)C1CCN(S(=O)(=O)c2ccccc2C(F)(F)F)CC1 (centres undefined) was read as AF4-AF9 inh -1.6.
Screening COc1ccc2c3c([nH]c2c1)[C@H](CO)N(C(=O)C1CCOCC1)CC31CN(C(=O)NC(C)C)C1 returned AF4-AF9 inh -5.4.
COCCNC(=O)C[C@H]1C[C@@H]2c3cc(NC(=O)Nc4ccc(C(F)(F)F)cc4)ccc3O[C@@H]2[C@H](CO)O1 was read as AF4-AF9 inh 4.8.
Screening COc1ccc(C#Cc2ccc3c(c2)[C@H]2[C@H](CCN2C(=O)c2cnccn2)[C@H](CO)N3)cc1 returned AF4-AF9 inh 2.8.
Screening C[C@H](CO)N1C[C@H](C)[C@@H](CN(C)Cc2ccccc2)Oc2ccc(NS(=O)(=O)c3ccc(F)cc3)cc2CC1=O returned AF4-AF9 inh -15.4.
Screening Cc1ccccc1S(=O)(=O)N1C[C@H](O)COC[C@@H]2O[C@H](CC(=O)N3CCN(C)CC3)CC[C@H]21 returned AF4-AF9 inh -0.8.
Screening COc1ccc(C#Cc2ccc3c(c2)[C@H]2[C@H](CCN2C(=O)C2CCCC2)[C@@H](CO)N3)cc1 returned AF4-AF9 inh 12.6.
Screening COCC(=O)Nc1ccc2c(c1)C(=O)N(C)C[C@@H](OC)[C@H](C)CN(Cc1cc(-c3ccccc3)on1)[C@H](C)CO2 returned AF4-AF9 inh 1.1.
C[C@@H]1CN([C@H](C)CO)C(=O)c2cc(C#Cc3ccccc3F)cnc2O[C@@H]1CN(C)C(=O)C1CCOCC1 was read as AF4-AF9 inh -4.6.
C[C@H](CO)N1C[C@H](C)[C@H](CN(C)Cc2ccc(Oc3ccccc3)cc2)Oc2c(NC(=O)C3CCOCC3)cccc2C1=O was read as AF4-AF9 inh 0.5.
For CCC(=O)Nc1ccc2c(c1)C(=O)N(C)[C@H]1CC[C@@H](CC(=O)NC3CCCC3)O[C@@H]1CO2 the results were AF4-AF9 inh 1.2.
N#Cc1cccc(-c2ccc(C3[C@H]4CNC[C@@H]3N4C(=O)Nc3ccccc3F)cc2)c1 (some centres undefined) was read as AF4-AF9 inh 7.9&-2.4.
For CS(=O)(=O)N1Cc2cc(C(=O)NCC3CCCCC3)nc(-c3cccc(-c4cccnc4)c3)c2[C@H]1CCO the results were AF4-AF9 inh -0.5.
Screening CS(=O)(=O)N1CC(=O)N2[C@H](CO)[C@H](c3ccc(Br)cc3)[C@@H]2C1 returned AF4-AF9 inh -5.1.
Screening COc1cccc(S(=O)(=O)N(C)C[C@H]2Oc3ncc(C#CC(C)C)cc3C(=O)N([C@@H](C)CO)C[C@@H]2C)c1 returned AF4-AF9 inh 2.9.
For COc1ccccc1-c1ccc2c(c1)O[C@H](CN(C)Cc1ccc3c(c1)OCO3)[C@@H](C)CN([C@H](C)CO)S2(=O)=O the results were AF4-AF9 inh 0.2.
`CCN1CC(=O)N2[C@H](C1)[C@@H](c1ccc(-c3ccccc3F)cc1)[C@@H]2CO` gave AF4-AF9 inh 0.7.
`CCCNC(=O)C1(C)CCCN(CCOc2ccccc2)C1` (centres undefined) gave AF4-AF9 inh -2.4.
For C[C@@H]1CN([C@H](C)CO)C(=O)Cc2cc(NS(=O)(=O)c3cn(C)cn3)ccc2O[C@H]1CN(C)Cc1ccc(Oc2ccccc2)cc1 the results were AF4-AF9 inh 3.2.
Screening CCc1cc2c(nc1CC)CCCN2C returned AF4-AF9 inh -2.4.
`C[C@@H]1CN([C@H](C)CO)C(=O)c2cc(NS(=O)(=O)c3ccc(F)cc3)ccc2O[C@H]1CN(C)Cc1ccc(C(=O)O)cc1` gave AF4-AF9 inh -1.0.
`CN(C)c1ccc2c(c1)[C@H]1C[C@H](CC(=O)NC3CCCC3)O[C@@H](CO)[C@H]1O2` gave AF4-AF9 inh -0.5.
`C[C@H]1CN([C@@H](C)CO)S(=O)(=O)c2ccc(C3=CCCC3)cc2O[C@H]1CN(C)Cc1cncnc1` gave AF4-AF9 inh 0.3.

A portion of the library; rates above refer to the full screens.
